PKD1 inh = inhibitors of human PKD1 kinase, biochemical, fluorescence polarization | actives 0.056% (n = 200,000) | PKD1 kinase fluorescence polarization assay | inhibition, %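 (about 10 µM by stock and volumes)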 | Serine/threonine-protein kinase D1 (Homo sapiens), Q15139;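 active = inhibition of 50% or more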;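 note: controls were vehicle for no effect and a reference inhibitor for full effect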
Insulin prom inh = inhibitors of insulin promoter-driven GFP, primary screen, imaging, TRM-6 cells (human fetal islet line), eGFP reporter, cell count | actives 0.9% (n = 130,000) | reporter expression induced with tamoxifen | inhibition, % at 2 µM | AID 1273, 2008;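 active = inhibition above the mean plus 3 SD, with well images judged a real hit on visual review, cut at about 60% in these data, passing the limit was not always enough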
GALR2 ag = GALR2 receptor agonists, primary screen, cell-based; GALR2-expressing cells, agonist activation read-out; activation, %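 (tested at 5 µM)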; actives 0.48% (n = 140,000);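 active = above mean plus 3 SD of all compounds, about 5% in these data, not always enough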;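 note: 0% = vehicle buffer wells and 100% = reference agonist at full effect; tested in CHO reporter cells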
Target sequence (O43603 whole entry, looked up): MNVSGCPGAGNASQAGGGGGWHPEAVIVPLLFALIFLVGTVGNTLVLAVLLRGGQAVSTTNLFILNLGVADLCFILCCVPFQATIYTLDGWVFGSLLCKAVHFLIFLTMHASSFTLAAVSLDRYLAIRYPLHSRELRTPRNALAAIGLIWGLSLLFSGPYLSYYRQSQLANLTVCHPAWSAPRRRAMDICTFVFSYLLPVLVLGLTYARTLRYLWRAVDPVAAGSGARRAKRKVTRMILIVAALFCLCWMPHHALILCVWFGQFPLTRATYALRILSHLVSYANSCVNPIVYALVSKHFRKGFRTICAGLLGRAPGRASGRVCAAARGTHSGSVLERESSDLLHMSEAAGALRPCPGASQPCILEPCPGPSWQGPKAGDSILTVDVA
HSV replic up = enhancers of HSV replication in host cells, fold increase, host cell viability. maximum fold increase. HSV replication augmentation in cells. AID 1956, 2009. actives 0.005% (n = 220,000);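 active = peak rise of 1.5-fold or more in the series; tested in PC3 cells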;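 note: first round at 10 µM; read as green reporter fluorescence; hits show the peak of a series up to 25 µM; 1 = signal of infected wells without compound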
RGS16-Gao HTS = modulators of RGS16 binding to Galphao, primary screen, biochemical, human proteins, multiplexed bead flow cytometry. Regulator of G-protein signaling 16 (Homo sapiens) + Guanine nucleotide-binding protein …. bead-based flow cytometry RGS16-Galphao binding, fluorescence; actives lie on both sides. binding response (% of control), % at 10 µM. actives 0.38% (n = 220,000);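 active = below 25% or above 175%, edge rows of some plates excepted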;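 note: Galphao activated by GDP with aluminum fluoride before binding; 100% = wells without compound and 0% = beads without RGS; some results beyond the cut were filed as inactive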
Target sequence (O15492 whole entry, looked up): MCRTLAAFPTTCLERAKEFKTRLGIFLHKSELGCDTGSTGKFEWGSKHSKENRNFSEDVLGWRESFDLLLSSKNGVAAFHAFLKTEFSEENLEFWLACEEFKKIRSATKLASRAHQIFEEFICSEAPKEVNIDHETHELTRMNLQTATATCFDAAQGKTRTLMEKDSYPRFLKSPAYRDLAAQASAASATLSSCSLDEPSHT
Target sequence (P09471 whole entry, looked up): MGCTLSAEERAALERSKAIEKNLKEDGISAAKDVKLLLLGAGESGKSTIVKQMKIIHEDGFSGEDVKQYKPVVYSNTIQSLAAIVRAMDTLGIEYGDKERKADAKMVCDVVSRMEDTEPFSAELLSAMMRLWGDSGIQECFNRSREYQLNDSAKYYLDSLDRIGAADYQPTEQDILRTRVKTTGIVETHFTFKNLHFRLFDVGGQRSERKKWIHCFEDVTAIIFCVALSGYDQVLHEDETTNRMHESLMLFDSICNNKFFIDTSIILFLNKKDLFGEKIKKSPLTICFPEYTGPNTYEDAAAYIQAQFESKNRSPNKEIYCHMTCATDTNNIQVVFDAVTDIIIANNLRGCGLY
Insulin prom inh cell count = recorded beside Insulin prom inh, whose call it bears; normalized cell count, %; measured here: cell count, toxicity; reference of the scale not given here;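 cells exposed to compound for 48 h; stained nuclei by imaging scaled within each plate; lower means fewer cells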
HSV replic up primary fold = further read-out of HSV replic up, marked with its call; fold increase; compound at 10 µM; measured here: primary screen fold increase 10 uM; tested in PC3 cells;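 GFP signal in the first replicate; 1 = infected wells without compound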
* = called active by the depositor; i = inactive; . = not tested or not shown.

Every second line gives: PKD1 inh, Insulin prom inh, Insulin prom inh cell count, GALR2 ag, HSV replic up, HSV replic up primary fold, RGS16-Gao HTS
N#C/C(=C(\O)Cc1ccccc1)c1nc2ccccc2[nH]1
  5, -9, 84, -1.3, i, 0.81, 84
Cc1ccc(S(=O)(=O)NCc2ccncc2)cc1
  2, ., ., -0.8, i, 1, 94
CC(C)n1c(-c2ccco2)csc1=Nc1cccnc1
  4, 0, 99, -1.6, i, 1.1, 97
O=C(NNC(=O)C1C2CCC(C2)C1C(=O)O)c1cccc(Cl)c1 (centres undefined)
  -5, ., ., ., i, 0.91, 97
CC1CN(C(=O)COc2ncnc3ccccc23)CC(C)O1 (centres undefined)
  -3, -31, 223, -2.9, i, 0.97, 99
Cc1ccc(C(=O)c2coc3ccc(O)c(Cl)c23)cc1
  -3, -61, 121, -1.5, i, 1, 102
COc1cccc(-c2nc(-c3ccc(NC(=O)c4ccncc4)cc3)no2)c1
  -4, ., ., 0.5, i, 0.78, 100
Cc1c(C=O)n(C)n(-c2ccccc2)c1=O
  0, -11, 102, ., i, 1.1, 100
CCCC(C)C(=O)Nc1ccc(NC(C)=O)cc1 (centres undefined)
  -5, -37, 95, -1.5, i, 0.96, 105
CCCCCCCCCC(=O)OCC(O)CO (centres undefined)
  -3, 5, 57, -0.5, i, 0.91, 97
Cc1ccccc1NC(=O)CCCSc1nc2ccccc2s1
  4, ., ., -0.4, i, 1.2, 93
CCn1c(N)c(C(=O)NC2CCCCC2)sc1=S
  8, -18, 124, -0.1, i, 0.95, 98
Cc1nc([N+](=O)[O-])cn1CC(O)c1ccc(-c2ccccc2)cc1 (centres undefined)
  ., ., ., ., i, 0.98, 95
Cc1ccc(C)n1-c1ncc(Br)cn1
  -2, ., ., ., i, 1, 102
Cc1nnc(NC(=O)c2ccco2)s1
  -8, ., ., -1.0, i, 0.83, 102
O=C(CSc1n[nH]c(=O)[nH]c1=O)NCC1CCCCC1
  ., ., ., ., i, 0.92, 103
Clc1ccccc1C1CC(c2ccccc2)=Nc2ccccc2N1 (centres undefined)
  ., ., ., ., i, 1, 95
COc1cccc2cc(C(=O)N(Cc3ccccc3)CC3CCCO3)c(=O)oc12 (centres undefined)
  2, 56, 90, -1.3, i, 0.91, 148
O=C(NCc1ccc(Cl)cc1)c1ccc(CSc2nc3ccncc3[nH]2)cc1
  ., ., ., ., i, 0.92, 102
CCCNC(=S)N1CCC(NC(=O)C2CCCCC2)CC1
  -1, 14, 79, -1.7, i, 0.85, 96
O=c1[nH]nc(SCc2nnc(-c3cccc(Cl)c3)o2)n1C1CCCCC1
  ., ., ., ., i, 0.96, 102
Oc1ccccc1/C=N/Nc1nccnc1Cl
  9, 0, 49, -0.5, i, 0.66, 136
CC(C)c1ccc(NC(=O)COc2ccccn2)cc1
  7, ., ., ., i, 1, 102
CC(C)NCC1CCc2cc(CO)c([N+](=O)[O-])cc2N1 (centres undefined)
  ., ., ., ., i, 0.97, 118
C=CCSc1nnc(CNC(=O)c2ccc(Cl)cc2)n1CC
  -3, -40, 76, ., i, 0.93, 101
COC(=O)Cc1ccc(NC(=S)N2CCN(c3ccc(OC)cc3)CC2)cc1
  -12, ., ., -0.3, ., ., 72
COc1cc(Cl)c(C)cc1NC(=O)CCCN1C(=O)CCC1=O
  -1, -46, 124, 1.0, i, 0.89, 98
COc1ccc(C(=O)C[n+]2ccccc2C)cc1
  8, 39, 96, -0.4, i, 0.9, 100
COc1ccc(C2NCCn3cccc32)cc1 (centres undefined)
  -1, -129, 132, -2.1, i, 1.1, 108
CN(CCC#N)C(=O)COC(=O)c1c2c(nc3ccccc13)/C(=C/c1ccco1)CC2
  -6, 22, 70, -0.1, i, 1.3, 96
COc1ccc(C(=O)C2CCCN(Cc3cccn3-c3nccs3)C2)cc1F (centres undefined)
  -2, ., ., ., i, 0.93, 104
O=C(CC1C(=O)NCCN1Cc1c(F)cccc1Cl)NCCCn1ccnc1 (centres undefined)
  1, 0, 106, ., i, 1.1, 116
C/C(=C\C(=O)c1ccccc1)Nc1ccc2c(c1)OCO2
  -8, ., ., -2.0, i, 1.1, 101
COc1ccc(CNC(=O)CSc2ncnc3ccccc23)cc1OC
  -4, 9, 71, ., i, 0.99, 107
Cc1c(N2C(=O)C(C)SC23C(=O)Nc2ccccc23)c(=O)n(-c2ccccc2)n1C (centres undefined)
  -1, -3, 156, -1.7, i, 0.89, 104
Cn1c(N)c(C#N)c(C#N)c1-c1ccccc1
  -1, -11, 187, -3.2, i, 0.92, .
Cc1ccc(OCC(=O)N(Cc2ccccc2)c2ccccn2)cc1
  5, ., ., ., i, 1, 102
O=C(CNC(=O)c1ccccc1)NCC(=O)OCc1ccccc1Cl
  -7, ., ., ., i, 0.96, 98
COc1cc(C(=O)N=c2sc3c(C)ccc(OC)c3n2C)cc(OC)c1OC
  ., ., ., ., i, 0.9, 98
CN(C[C@@H](CC1CCCCC1)N(C[C@H](Cc1ccccc1)N(CCc1ccccc1)N=O)N=O)N=O
  10, ., ., ., i, 0.71, 97

Ordered by formula weight (rising): part of the list above
Every second line gives: PKD1 inh, Insulin prom inh, Insulin prom inh cell count, GALR2 ag, HSV replic up, HSV replic up primary fold, RGS16-Gao HTS
COc1ccc(C(=O)C[n+]2ccccc2C)cc1
  8, 39, 96, -0.4, i, 0.9, 100
CC(C)c1ccc(NC(=O)COc2ccccn2)cc1
  7, ., ., ., i, 1, 102
COC(=O)Cc1ccc(NC(=S)N2CCN(c3ccc(OC)cc3)CC2)cc1
  -12, ., ., -0.3, ., ., 72
CN(C[C@@H](CC1CCCCC1)N(C[C@H](Cc1ccccc1)N(CCc1ccccc1)N=O)N=O)N=O
  10, ., ., ., i, 0.71, 97

Next records.
Every second line gives: PKD1 inh, Insulin prom inh, Insulin prom inh cell count, GALR2 ag, HSV replic up, HSV replic up primary fold, RGS16-Gao HTS
CCCCc1ccc(C2C3=C(CC(C)(C)CC3=O)NC3=C2C(=O)c2ccccc23)cc1 (centres undefined)
  15, ., ., -0.2, i, 0.86, 104
O=S(=O)(NCc1cccnc1)c1ccc2c(c1)OCCO2
  4, -469, 55, -1.2, i, 1, 105
O=C(Nc1ccc(S(=O)(=O)NCc2ccco2)cc1)C1CCCCC1
  3, ., ., ., i, 1.1, 100
CC(C)c1ccc[n+](-c2nc([O-])sc2C=O)c1
  ., ., ., ., i, 1.1, 89
Cc1ccc(OCC(=O)N(Cc2cccs2)C2CCS(=O)(=O)C2)cc1 (centres undefined)
  ., ., ., ., i, 0.97, 96
CCS(=O)(=O)N1CCN(C(=O)CC(C)C)CC1
  -11, 18, 108, -2.8, i, 1.1, 154
COC(=O)/C=C1/C(=O)N/C(=N\c2nc(C)cc(C)n2)N1c1ccc(OC)cc1
  -8, ., ., -0.6, i, 0.95, 101
CN1CCN(CCCNC(=O)c2nnc(Cc3c(F)cccc3Cl)o2)CC1
  6, -5, 199, -0.2, i, 1.1, 101
COCCCNCCOCCOc1ccc(C)cc1Br
  -1, -35, 66, -1.4, i, 0.96, 116
Oc1ccc(-c2nc(-c3ccc(O)c(O)c3)cs2)cc1
  3, ., ., -1.6, i, 0.48, 97
O=C(NNS(=O)(=O)c1ccccc1[N+](=O)[O-])c1ccccc1[N+](=O)[O-]
  5, 8, 157, -1.6, i, 1, 55
Cc1[nH]n(-c2cccc(Cl)c2)c(=O)c1C=NC12CN3CN(CN(C3)C1)C2
  3, 21, 129, -2.2, i, 0.9, 106
COc1cc(/C=C/C(=O)NCc2ccccn2)cc(OC)c1OC
  -3, 40, 70, -0.3, i, 0.9, 105
Clc1ccccc1CSc1nnc(/C=C/c2ccccc2)o1
  15, -31, 79, -0.6, ., ., 101
COc1cccc(NS(=O)(=O)c2cc(C)sc2C)c1
  -1, 9, 127, -0.7, i, 0.98, 102
Oc1ccc2ccccc2c1/C=N/Nc1ccccc1
  -5, ., ., -2.2, i, 1.1, 97
NC1=CC(=O)c2cccc3cccc1c23
  39, -100, 85, -1.6, i, 1, .
COc1ccccc1/C=C/C=N/n1c(C)nnc1C
  -4, ., ., ., i, 0.96, 100
CC(=O)N(C(C)=O)c1ccc2nc(C)[nH]c(=O)c2c1
  -8, 10, 114, -1.6, i, 0.94, 102
COc1cccc(OC)c1C(=O)Nc1ccc(CN2CCCCC2)cc1
  -3, -10, 92, -0.4, i, 1, 148
CCC(c1nnnn1Cc1ccc(F)cc1)N(CCCO)Cc1cc2cc3c(cc2[nH]c1=O)OCO3 (centres undefined)
  -5, -73, 110, 0.4, i, 1.1, 99
Cc1nnc(SCc2cc(=O)[nH]c(N3CCN(Cc4ccccc4)CC3)n2)s1
  3, -21, 112, -2.7, i, 0.98, 105
COc1ccc(S(=O)(=O)Nc2ccc(N3CCOCC3)nc2)cc1
  -7, ., ., ., i, 0.96, 99
CCc1nnc(NC(=O)CSc2nnc(COc3ccc(C#N)cc3)n2-c2ccccc2)s1
  4, 30, 84, -0.5, i, 0.93, 104
Cc1ccc(-c2csc(NC(=O)CCNC(=O)c3ccco3)n2)cc1
  5, ., ., ., i, 1, 105
COc1ccc(-c2csc(NNC3=NCCCCC3)n2)cc1
  8, ., ., ., i, 0.98, 103
c1ccc2c(c1)CCCN2Cc1nnnn1CC1CCCO1 (centres undefined)
  6, -30, 107, -1.0, i, 0.94, 154
CC(C)Oc1ccc(C2CC(=O)N(c3cccc(C(=O)O)c3)C2=O)cc1 (centres undefined)
  3, 45, 106, -3.3, i, 1.1, 105
O=[N+]([O-])c1ccc(-c2ccc(/C=N/Nc3nc(N4CCCC4)nc(N4CCCC4)n3)o2)cc1
  -5, ., ., ., i, 1.3, 100
Cc1cc(N/N=C/c2ccc(O)c(C)c2O)nc(-c2ccccc2O)n1
  -5, 32, 143, -1.8, i, 0.57, 107
Cc1ccc(C(c2nnnn2C2CCCC2)N2CCN3CCCC3C2)cc1 (centres undefined)
  -8, 8, 229, -2.7, i, 1, 106
COc1ccc(Cl)cc1Nc1nc(-c2sc(NC(=O)C(C)(C)C)nc2C)cs1
  12, -60, 32, 0.5, i, 0.96, 105
CCn1ccnc1CN(C)Cc1nc(Cc2cccc(C(F)(F)F)c2)no1
  -4, 27, 58, ., i, 0.94, 99
CCN(CC)S(=O)(=O)c1cccc(C(=O)N/N=C(\C)c2cccs2)c1
  4, ., ., ., i, 0.98, 103
CN(C)c1ccc(NC(=O)CC2NCCNC2=O)cc1 (centres undefined)
  -3, -488, 54, -1.6, i, 0.83, 99
CC1CCC(C(C)C)C(OCC(O)CN2CCN(Cc3ccccc3)CC2)C1 (centres undefined)
  -11, -3, 136, -2.9, i, 0.93, 99
CC1CN(c2ccc([N+](=O)[O-])cc2C(=O)N2CCOCC2)CC(C)N1 (centres undefined)
  4, 14, 75, -0.8, i, 0.98, 102
O=C(Cc1cccs1)N=Nc1c(O)[nH]c2ccccc12
  ., ., ., ., i, 0.82, 108
Cc1n[nH]c(=O)n1-c1ccc(OC(F)(F)F)cc1
  -7, 0, 67, ., i, 0.94, 85
C=CCn1c(SCC(=O)N2CCOCC2)nc2scc(-c3ccco3)c2c1=O
  -11, 3, 115, -1.1, i, 1, 93
Cc1ccc(-c2nn3c(C)nnc3c3ccccc23)cc1S(=O)(=O)NC(C)c1ccccc1 (centres undefined)
  -1, 55, 69, 1.4, i, 0.83, 101
COCCn1c(=O)[nH]c2cc(C(=O)N3CCN(c4ccccc4OC)CC3)ccc2c1=O
  -4, 18, 129, -0.3, i, 1.1, 75
Cc1ccc(CNC(=O)Nc2ccc(C)cc2)cc1
  1, ., ., ., i, 0.95, 94
N#C/C(=C\c1ccccc1)C(=O)Nc1nncs1
  ., ., ., ., i, 0.97, 99
Cc1ccc(S(=O)(=O)N2CN(Cc3ccco3)c3nc4ccccc4nc32)cc1C
  -4, -17, 50, -1.1, i, 1.3, 99
COC(=O)c1cccc(NC(=S)NCc2ccc(F)cc2)c1
  6, ., ., ., i, 0.92, 108
Cc1ccc(CNC(=O)CCSCCC(=O)NCc2ccc(C)cc2)cc1
  -6, 29, 135, -2.8, i, 0.9, 102

Arranged by the number under HSV replic up primary fold (largest number first): 3 from the list above
structure | PKD1 inh | GALR2 ag | HSV replic up primary fold | RGS16-Gao HTS
Cc1ccc(S(=O)(=O)N2CN(Cc3ccco3)c3nc4ccccc4nc32)cc1C | -4 | -1.1 | 1.3 | 99
N#C/C(=C\c1ccccc1)C(=O)Nc1nncs1 | . | . | 0.97 | 99
Cc1ccc(CNC(=O)Nc2ccc(C)cc2)cc1 | 1 | . | 0.95 | 94
